YopH PTP inh: inhibitors of Yersinia enterocolitica YopH tyrosine phosphatase | fluorescence Ex485/Em525 | inhibition, %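 (about 10 µM by stock and volumes)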 | AID 898 | actives 0.16% (n = 140,000);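 active = inhibition of 50% or more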;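 also: controls were vehicle for no effect and minimum signal wells for full effect; inactives centre near -20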
Mtb growth: M. tuberculosis H37Rv growth inhibitors, H37Rv strain (AID 1626) | inhibition, % at 10 µM, or IC50 in µM where a hit was titrated | M. tuberculosis H37Rv growth inhibition; higher % means a stronger effect | actives 0.95% (n = 220,000);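 active = confirmed in a dose series; inconclusive = inhibition above 80% but not taken into the dose series; inactive = below 80% or under 30% at every dose of the series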;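 also: bacteria incubated seven days before Alamar blue readout; 0% = bacteria only wells and 100% = bacteria with antibiotic wells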
RecA splice inh: inhibitors of M. tuberculosis RecA intein splicing; cell-free RecA intein splicing, fluorescence; inhibition, %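 (about 9 µM by stock and volumes)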; actives 0.75% (n = 290,000); P9WHJ3; AID 2221; in the data active = inhibition above about 30%; inconclusive = no clear call, values can overlap the other calls;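 also: 0% = vehicle wells and 100% = reference inhibitor control wells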
Target sequence (P9WHJ3 whole entry, looked up, canonical isoform): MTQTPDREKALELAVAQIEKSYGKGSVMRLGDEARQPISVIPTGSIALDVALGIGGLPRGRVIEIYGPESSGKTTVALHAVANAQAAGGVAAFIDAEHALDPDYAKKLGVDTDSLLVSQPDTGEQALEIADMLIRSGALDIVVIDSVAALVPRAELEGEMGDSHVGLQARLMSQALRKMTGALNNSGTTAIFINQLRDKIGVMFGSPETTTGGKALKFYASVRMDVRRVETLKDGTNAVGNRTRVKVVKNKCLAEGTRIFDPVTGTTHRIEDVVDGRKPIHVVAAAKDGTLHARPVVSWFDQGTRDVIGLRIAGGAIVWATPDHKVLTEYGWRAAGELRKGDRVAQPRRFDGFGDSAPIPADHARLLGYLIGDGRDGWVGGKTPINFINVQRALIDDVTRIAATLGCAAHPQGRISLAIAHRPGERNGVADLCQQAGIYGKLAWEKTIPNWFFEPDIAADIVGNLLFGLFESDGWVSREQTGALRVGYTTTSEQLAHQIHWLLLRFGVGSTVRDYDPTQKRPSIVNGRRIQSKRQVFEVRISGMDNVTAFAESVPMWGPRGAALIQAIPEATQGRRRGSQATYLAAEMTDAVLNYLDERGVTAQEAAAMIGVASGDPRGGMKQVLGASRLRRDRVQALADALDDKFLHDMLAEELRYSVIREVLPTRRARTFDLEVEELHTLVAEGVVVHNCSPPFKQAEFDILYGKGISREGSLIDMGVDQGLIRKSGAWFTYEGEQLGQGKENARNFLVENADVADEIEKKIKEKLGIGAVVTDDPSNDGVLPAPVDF
Mtb bLac sens: beta-lactam sensitization of Mtb H37Rv | M. tuberculosis H37Rv growth with meropenem, percent inhibition; hits of this screen are not shown here | inhibition, % at 25 µM | actives 0.27% (n = 330,000);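 active = about 74% or more and at least 40 points above the plate without the antibiotic, then above 30% in a dose series; inconclusive = first-round hits that could not be retested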;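 also: growth measured after seven days incubation then overnight dye step; 0% = bacteria only wells and 100% = bacteria with antibiotic; twin plates without the antibiotic show which effects depend on it; some results filed as inactive read as strong as hits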
Arbovirus anti: blocks arbovirus infection; arbovirus infection cell-based antiviral screen; inhibition, % at 10 µM; AID 1251; actives 0.37% (n = 200,000);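 active = inhibition from about 30%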;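 also: bluetongue infection of BSR cells; cell survival read as ATP light after 72 h; 0% = infected wells without compound and 100% = uninfected wells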
Arbovirus anti repeat: also measured in Arbovirus anti; calls as there; inhibition, %; measured here: 10K subset replicate screen; many hits read low in the repeat;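 first of two repeat runs on a subset; 0% = infected and 100% = uninfected wells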
* marks the source's active call; other numbers are inactive results; ? = inconclusive; · = not tested or not shown. This is a subset; count on the stated rates, not on these rows.

The opening five compounds as a preview:
SMILES	YopH PTP inh	Mtb growth	RecA splice inh	Mtb bLac sens	Arbovirus anti	others
c1ccc2c(-c3nn4nnnc4c4ccccc34)cccc2c1	-2	·	0.6	11	-5
O=C(COc1ccc(Cl)cc1)N(c1ccc(Cl)cc1)C1CN2CCC1CC2 (stereo not given)	·	1%	-0.1	-5	·
CCOc1ccc(/C=C2/C(=N)N3OC(C)=CC3=NC2=O)cc1OC	·	-3%	-1.5	4	-10
O=C1OCCC1Sc1nnc(-c2ccc(Br)cc2)o1 (stereo not given)	-14	-8%	2.5	-6	14
CC(C)Oc1cccc(C(=O)Nc2ccc(NC(=O)c3ccco3)cc2)c1	-49	11%	1.7	7	-15

The listing (from the top)
SMILES	YopH PTP inh	Mtb growth	RecA splice inh	Mtb bLac sens	Arbovirus anti	others
c1ccc2c(-c3nn4nnnc4c4ccccc34)cccc2c1	-2	·	0.6	11	-5
O=C(COc1ccc(Cl)cc1)N(c1ccc(Cl)cc1)C1CN2CCC1CC2 (stereo not given)	·	1%	-0.1	-5	·
CCOc1ccc(/C=C2/C(=N)N3OC(C)=CC3=NC2=O)cc1OC	·	-3%	-1.5	4	-10
O=C1OCCC1Sc1nnc(-c2ccc(Br)cc2)o1 (stereo not given)	-14	-8%	2.5	-6	14
CC(C)Oc1cccc(C(=O)Nc2ccc(NC(=O)c3ccco3)cc2)c1	-49	11%	1.7	7	-15
COc1ccccc1/C=C/C(=O)NC(=S)N1CCN(C)CC1	·	·	-1.4	13	·
COCc1cc(C)nc(OCC(=O)N/N=C/c2ccc(-c3cc([N+](=O)[O-])ccc3C)o2)c1C#N	-38	3%	-1.1	-5	8
Cc1ccc(C2CC(c3cccs3)=NN2C(=O)CSc2nc(=O)n3ccc(C)cc3n2)cc1 (stereo not given)	·	·	19	46	·
O=C(Nc1ccc(Cl)c(Cl)c1)c1ccc(Cn2cc(Cl)cn2)cc1	-24	?	8.0	·	-21
O=C1C(=O)N(c2ccccn2)C(c2cccc(F)c2)/C1=C(/O)c1ccccc1 (stereo not given)	·	·	-0.1	6	·
COCCCNC(=S)NC(=O)c1ccc([N+](=O)[O-])cc1	-22	2%	-2.6	2	3
O=C(/C=C/c1ccc(F)cc1)Nc1cccc(S(=O)(=O)Nc2cccc(C(F)(F)F)c2)c1	-26	-7%	-2.1	-3	3
CCOC(=O)c1[nH]cnc1C(=O)Nc1ccc(F)cc1	·	-6%	1.3	12	6
O=C(CCSc1ccc(Br)cc1)Nc1cccnc1	·	7%	0.4	10	7
Cc1ccc(CNC(=O)COC(=O)c2ccc(S(=O)(=O)N3CCCC3)cc2)cc1	-4	-2%	·	-4	9
C/C(=N/Nc1nc(-c2ccccc2)cc(-c2ccc(F)cc2)n1)c1cccc(N)c1	-20	19%	-0.5	15	8
O=C(C#Cc1ccccc1)c1cccc([N+](=O)[O-])c1	6	-10%	4.6	100	-36
CC(C)(C)n1ncc2c(=O)n(CC(=O)Nc3ccccc3)cnc21	-28	6%	0.0	6	1
C/C(N)=C(/C#N)C(=O)CSc1ccccc1F	·	7%	-0.7	-5	3
CCOC(=O)c1ccc(CC(=O)c2ccc(O)c(O)c2O)o1	·	-2%	1.0	·	-3
Cc1nc(Cl)c(C(=O)NCCC(C)C)c(C)c1[N+](=O)[O-]	9	11%	-2.0	3	-2
O=C1C2CCCCC2C(=O)N1c1ccc(S(=O)(=O)Nc2ncccn2)cc1 (stereo not given)	·	·	-0.1	4	·
O=C(COC(=O)c1nc(Cl)ccc1Cl)NC1CCS(=O)(=O)C1 (stereo not given)	·	·	-4.7	-9	·
Cc1ccc(Cn2ccc(NC(=O)c3cc(-c4ccc(Br)cc4)on3)n2)cc1	-26	11%	1.1	5	-3
O=C(NCc1ccccc1)c1c(O)c2ccccc2[nH]c1=O	·	·	-0.9	12	·
NC(=O)C1CCN(C(=O)c2ccc3c(=O)n(Cc4cccc(Br)c4)c(=S)[nH]c3c2)CC1	·	·	3.1	-2	·
COc1ccc(C)cc1S(=O)(=O)N(C)CC(=O)N1CCCCCC1	-12	-4%	-0.2	-3	0
CC(C)CNS(=O)(=O)c1ccc(CCC(=O)Nc2ccc3c(c2)OCO3)cc1	-12	5%	1.6	-6	0
CN(Cc1cnccn1)Cc1c(C(=O)N2CCc3ccccc3C2)nc2ccc(Cl)cn12	·	-2%	-1.1	-4	2
COc1ccc(C(=O)N(CN2CCCC2=O)c2ccc(C)cc2)cc1	-31	-8%	-0.6	6	7
CCOC(=O)CN1C(=O)S/C(=C/c2ccc(OC)c([N+](=O)[O-])c2)C1=O	13	1%	-0.8	-1	-4
COc1ccc(CN2CCNC(=O)C2CC(=O)NCC2CCOCC2)c(C)c1C (stereo not given)	·	·	4.5	?	·
CN1CSC2=C(C#N)C(c3cccc(OCc4ccccc4)c3)CC(=O)N2C1 (stereo not given)	-54	5%	8.0	-1	2	Arbovirus anti repeat=2
Cc1[nH]c(C)c(C(=O)/C=C/c2ccc([N+](=O)[O-])cc2)c1C	·	·	3.9	2	·
CC(C)(C)c1ccc(OCCNC(=S)Nc2ccccc2)cc1	·	-3%	4.9	6	-33
O=C(CNC(=O)c1ccc(Cl)cc1Cl)OCc1ccccc1	·	·	2.7	10	·
COc1ccc(OCC(=O)Nc2ccccc2C(=O)Nc2ccc(C(=O)O)cc2)cc1	·	·	0.9	7	·
CCCOc1ccc(/C(O)=C2/C(=O)C(=O)N(CCN(C)C)C2c2ccc(OC)c(OC)c2)cc1 (stereo not given)	0	-5%	3.4	0	5
Cc1ccc2c(c1)N(C(=O)CCC(=O)NC1CCCCCC1)CC(C)O2 (stereo not given)	·	·	-0.2	-8	·
CCC(NC(=O)c1ccccc1NC(=O)c1ccco1)C(=O)NNC(=O)c1ccncc1 (stereo not given)	·	-11%	-0.5	6	·
Cc1ccc(S(=O)(=O)N2CCCCC2)cc1NC(=O)Nc1ccc(Cl)cc1Cl	·	6%	-0.6	-3	-6
CC(=O)c1ccc(N2CCC(C(=O)O)CC2)cc1	·	·	0.2	-5	-1
CC(=O)NCC(O)c1ccc([N+](=O)[O-])cc1 (stereo not given)	·	1%	-1.0	2	·
Cc1ccc(Nc2c(-c3ccccn3)nc3cc(C)ccn23)cc1	·	1.4µM*	24	98	-25
CCN1CCN(CC(=O)Nc2cc(F)ccc2C)CC1	10	-11%	-3.5	-3	3
Cn1c(CC(=O)NN)c(Sc2ccccc2)c2ccccc21	·	·	5.6	-7	·
COc1ccc(NC2CCCN(Cc3cccc4cnccc34)C2)cc1 (stereo not given)	·	·	-1.8	2	·
O=C(COc1ccc2ccccc2c1)NCCNC(=O)COc1ccc2ccccc2c1	-19	-2%	2.0	-4	-8
Cc1c(NS(=O)(=O)c2cc([N+](=O)[O-])ccc2Cl)c(=O)n(-c2ccccc2)n1C	·	·	2.8	1	·
CCCCNC(=O)NS(=O)(=O)c1ccc(C(=O)OC(C)C)o1	-24	-18%	-5.3	-3	0
CCOC(=O)/C(C#N)=C/c1cc(C)n(-c2ccccc2)c1C	9	4%	-2.4	-9	1
CCCCN(CC)CCNC(=O)CCNC(=O)Cn1ccc2ccccc2c1=O	·	-2%	2.1	-3	4
N#Cc1cn(CC(=O)N2CCCC2)c2ccccc12	-55	-9%	-0.5	5	6
O=C(N/N=C/c1c[nH]c2ccccc12)c1ccn[nH]1	·	-3%	0.1	-6	3
CCN(CC(=O)Nc1ccc(S(=O)(=O)N2CCOCC2)cc1)Cc1ccccc1	·	·	3.0	-5	·
COc1ccc(S(=O)(=O)N(C)c2c(C)n(C)n(-c3ccccc3)c2=O)cc1OC	3	6%	-0.7	-3	-4	Arbovirus anti repeat=2
O=C(O)C1C(=O)NCC1c1ccccc1 (stereo not given)	·	-3%	0.8	-7	1
O=c1c(CN2CCN(c3cccc(Cl)c3)CC2)coc2c(Cl)cc(Cl)cc12	-47	·	3.2	7	11
O=C(CCN1CCN(S(=O)(=O)c2ccc(F)cc2)CC1)Nc1ccccc1F	·	·	0.2	4	·
Cc1ccc(-c2[nH]ncc2C(=O)c2cccc(F)c2)c(O)c1	·	·	4.2	0	·

4 entries drawn at random from those above, as already listed:
SMILES	YopH PTP inh	Mtb growth	RecA splice inh	Mtb bLac sens	Arbovirus anti	others
Cc1ccc(-c2[nH]ncc2C(=O)c2cccc(F)c2)c(O)c1	·	·	4.2	0	·
COc1ccc(S(=O)(=O)N(C)c2c(C)n(C)n(-c3ccccc3)c2=O)cc1OC	3	6%	-0.7	-3	-4	Arbovirus anti repeat=2
O=c1c(CN2CCN(c3cccc(Cl)c3)CC2)coc2c(Cl)cc(Cl)cc12	-47	·	3.2	7	11
CCN(CC(=O)Nc1ccc(S(=O)(=O)N2CCOCC2)cc1)Cc1ccccc1	·	·	3.0	-5	·

(listing goes on)
SMILES	YopH PTP inh	Mtb growth	RecA splice inh	Mtb bLac sens	Arbovirus anti	others
CCCc1cc(=O)[nH]c(SCc2cc(C(=O)OC)c(C)o2)n1	-25	-10%	-0.4	-6	18
CCSC(SCC)[C@H](O)[C@@H](O)[C@H](O)[C@H](O)CO	-36	-7%	2.8	5	1
CCC(C)NC(=S)Nc1ccc2nc(N3CCOCC3)cc(C)c2c1 (stereo not given)	·	·	-5.3	2	·
CCOc1ccc(-c2nnc(-c3cccnc3)o2)cc1OCC	-37	1%	0.4	-3	4
Cc1ccc(C(=O)Nc2ccc3[nH]c(=O)[nH]c3c2)c(C)c1	·	5%	0.6	-4	1
COc1ccc(Oc2nc(SC)nc3ccccc23)cc1	-42	13%	3.8	42	0
COc1cccc(CNC(=O)c2ccc(CS(=O)c3ccccc3)o2)c1 (stereo not given)	·	·	-0.8	3	·
CCN(CC1COc2ccccc2O1)C(=S)NC1CC2CCC1C2 (stereo not given)	·	-16%	10	14	-4
Cc1ccc(CN2CCN(C3CCC3)CC2CCO)cc1 (stereo not given)	·	·	1.3	-3	·
COc1cc2[nH]c(=S)nc(Nc3ccc(NC(C)=O)cc3)c2cc1OC	·	1%	-2.5	-12	0
CCOC(=O)c1c(C)[nH]c(C)c1S(=O)(=O)NCC1CCN(Cc2ccccc2F)CC1	·	·	-1.6	3	·
COc1ccc(C(CNC(=O)c2cc(C)oc2C)N2CCOCC2)cc1 (stereo not given)	33	1%	-1.6	-4	2
CCOC(=O)c1c(NC(=O)c2cnn3c2NC(c2cccc(OC)c2)CC3C(F)(F)F)sc2c1CCCC2 (stereo not given)	-16	7%	1.8	5	-6
Cc1ccc(C(=O)N2CCOCC2)cc1[N+](=O)[O-]	-23	-5%	2.5	-5	2
Cc1ccc(C)c(S(=O)(=O)Nc2ccc(C(N)=O)cc2)c1	·	-7%	0.6	-7	-7
CN(C)S(=O)(=O)c1cccc(NC(=O)CNCc2ccccn2)c1	·	1%	-1.7	-8	·
O=C(Nc1cccc(C(=O)N2CCOCC2)c1)c1ccc([N+](=O)[O-])cc1	·	·	0.9	-2	·
CCCn1c2c(c(O)c(C(=O)Nc3ccc(OCC)cc3)c1=O)CCCC2	-8	·	-1.9	9	18
Cc1nn(C)cc1C(C(=O)NC1CCCCC1)N(C(=O)Cc1cccs1)c1ccc(C(C)C)cc1 (stereo not given)	-8	-1%	0.4	13	-24
Cc1c(C)n(CC(O)CNCCO)c2ccccc12 (stereo not given)	·	-3%	-2.1	1	6
CS(=O)(=O)N(CC(=O)NC1CCCC1)Cc1ccc(Cl)cc1	-13	-3%	0.6	0	11
CCOc1ccccc1NS(=O)(=O)c1cn(C)c(=O)n(C)c1=O	·	6%	-3.1	-6	·
O=C1NCCCC2c3c(cc(Br)c(O)c3Br)OC12N1CCOCC1 (stereo not given)	-51	3%	-2.7	2	2
COc1cccc2cc(C(C)N(CCCN3CCOCC3)C(=S)Nc3cccc(C)c3C)oc12 (stereo not given)	·	8%	-1.1	2	-8
COC(=O)C1=NN(C(C)=O)C2(CC(=O)N(c3cccc(C)c3)C2=O)C1 (stereo not given)	-24	-2%	5.7	-2	-4
CCn1c(SCC(=O)N2CCC(C)CC2)nnc1-c1ccc(S(=O)(=O)N2CCN(C)CC2)cc1	-31	-9%	3.6	-16	-2

Assay outcomes as filed in PubChem BioAssay.
